Bioassay records from PubChem BioAssay.
RE007 growth inh – less growth of the S. pombe RE007 Vpr strain; S. pombe RE007 Vpr strain, BacTiter-Glo ATP luminescence, 24 h; control for the full effect not named in the record; Potency, µM (doses to about 92.2 µM), for the others: top-dose activity change, negative = less growth; hit rate 0.21% among 360,000; active = well fitted falling curve with a large enough effect; inconclusive = small, poorly fitted or top-dose-only effect; inactive = no such curve, though single readings can be large or run the other way;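 note: % is set by controls: 0 for no effect and ±100 for the full control effect; nearly all actives have a fitted effect of over 50% in size; the assay follows cell death caused by Vpr and the record does not say whether a fall means rescue or toxicity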
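Fission yeast strain RE007, carrying one chromosomally integrated HIV-1 vpr copy, was seeded at OD 0.01 in PMG+AL medium with 23 nL pinned compound. After 24 h at 30 °C and 99% humidity, viability was read by BacTiter-Glo luminescence.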
Cruzain noTriton – blocks cruzain activity in detergent-free assay; Potency, µM, for the others: max response, negative = inhibition, hits mostly inhibitors; hit rate 2.3% among 200,000; purified cruzain, Z-FR-AMC fluorescence, no detergent; P25779;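 note: plate controls were enzyme without inhibitor for no effect and buffer without enzyme for full effect; nearly all actives have a fitted effect of over 40% in size; top concentration of the series not given in the record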
Target sequence (P25779 123-467 limits assumed): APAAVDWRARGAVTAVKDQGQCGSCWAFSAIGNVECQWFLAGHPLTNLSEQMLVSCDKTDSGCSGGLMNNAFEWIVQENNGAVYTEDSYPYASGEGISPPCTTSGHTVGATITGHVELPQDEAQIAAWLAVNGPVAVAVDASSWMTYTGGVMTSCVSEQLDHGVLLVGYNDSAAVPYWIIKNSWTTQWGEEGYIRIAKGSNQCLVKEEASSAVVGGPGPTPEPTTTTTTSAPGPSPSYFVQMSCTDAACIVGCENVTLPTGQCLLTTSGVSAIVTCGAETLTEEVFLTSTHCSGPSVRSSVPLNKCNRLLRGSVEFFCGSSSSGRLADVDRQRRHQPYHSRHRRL
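Detergent-free condition (0.00005% Triton X-100) in acetate buffer pH 5.5 with DTT. 1.5 nM enzyme and compound were pre-mixed 15 min, then 2 uM Z-FR-AMC substrate added; reaction progress from fluorescence change between first and third reads (60 s).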
StopGo reporter – FMDV 2A StopGo reporter, luciferase signal. human cells with a luciferase reporter of 2A StopGo recoding; control for the full effect not named in the record. Potency, µM (series often up to 57.9 µM), inactives show at the top dose signal change, negative = less light. hit rate 1.2% among 410,000; active = well fitted falling curve with a large enough effect; inconclusive = small, poorly fitted or top-dose-only effect; inactive = no such curve, though single readings can be large or run the other way; tested in HEK293T cells; note: % is set by controls: 0 for no effect and ±100 for the full control effect; nearly all actives have a fitted effect of over 45% in size; luciferase light after 4 h
Marburg entry inh – Marburg virus entry inhibition; Potency, µM (doses to about 37.8 µM), inactives show at the highest dose activity change, negative = inhibition, hits mostly inhibitors; hit rate 1.8% among 300,000; Marburg virus pseudotyped entry inhibition, cell reporter; control for the full effect not named in the record; about a third of the inactives were read at about 46 µM; active = well fitted inhibition curve with a large enough effect; inconclusive = small, poorly fitted or top-dose-only effect, or effect the other way; inactive = flat fitted curve, though single readings scatter; tested in HEK293 cells; about a fifth of its hits are not listed in these tables; note: % is set by controls: 0 for no effect and ±100 for the full control effect; luciferase read-out
NS1 inh – influenza NS1 inhibition. S. cerevisiae slowed by influenza A NS1, growth recovery by OD600. Potency, µM (series often up to 46.1 µM), without a hit: at the highest dose activity, positive = more growth. hit rate 0.4% among 270,000. AID 2326; active means well fitted rising curve with a large enough effect; inconclusive means small, poorly fitted or top-dose-only effect; inactive means no such curve, though single readings can be large or run the other way; note: nearly all actives have a fitted effect of over 50% in size
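Recovery from NS1-induced slow growth read by OD600 in budding yeast switched to galactose assay medium (pH 6.0, -URA) at 1:100 dilution. Compound 23 nl per well; the matching strain lacking NS1 serves as control.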
Cruzain Triton – blocks cruzain activity in presence of Triton detergent. AID 1478. P25779. purified cruzain, Z-FR-AMC fluorescence, 0.01% Triton. Potency, µM, without a hit: max response, negative = inhibition, actives largely listed as inhibitors. hit rate 0.43% among 200,000;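 note: plate controls were neutral wells for no effect and buffer without enzyme for full effect; nearly all actives have a fitted effect of over 40% in size; top concentration of the series not given in the record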
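Sodium acetate buffer (100 mM, pH 5.5) containing 5 mM DTT and 0.01% Triton X-100 hosted 1.5 nM cruzain and test compound for 15 min at room temperature. Cleavage of 2 uM Z-FR-AMC was then tracked by fluorescence.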
Lassa entry inh – blocks Lassa virus binding to or entry into cells. Lassa virus pseudotype entry inhibition, cell reporter; control for the full effect not named in the record. Potency, µM (top dose mostly 37.9 µM), inactives show at the top dose activity change, negative = inhibition, hits mostly inhibitors. hit rate 1.2% among 300,000. AID 540256; active means well fitted inhibition curve with a large enough effect; inconclusive means small, poorly fitted or top-dose-only effect, or effect the other way; inactive means flat fitted curve, though single readings scatter; tested in HEK293 cells; note: % is set by controls: 0 for no effect and ±100 for the full control effect; nearly all actives have a fitted effect of over 50% in size; luciferase read-out
SARS PLP yeast – blocks SARS-CoV papain-like protease in a yeast assay. S. cerevisiae expressing SARS-CoV PLpro, growth rescue; control for the full effect not named in the record. Potency, µM (doses to about 32.9 µM), for the others: at the highest dose activity, positive = growth rescue. hit rate 0.19% among 330,000. AID 485353; active means well fitted rising curve with a large enough effect; inconclusive means small, poorly fitted or top-dose-only effect; inactive means no such curve, though single readings can be large or run the other way; note: 0% is about no effect; nearly all actives have a fitted effect of over 55% in size; growth read by luminescence after 48 h
* marks the source's active call; other numbers are inactive results; u = inconclusive; x = not tested or not shown; & = joins results of further samples; [ ] = another dose, or the depositor's remark. Unless noted, calls come from the whole dose curve; as a rule, active = well fitted curve in the direction sought with a large enough effect; inconclusive = small, poorly fitted or top-dose-only effect, or another doubt; inactive = no such curve, though single readings can be large; an effect the other way counts as inactive or inconclusive. Potency is the fitted concentration of half-maximal effect.

SMILES	RE007 growth inh	Cruzain noTriton	StopGo reporter	Marburg entry inh	NS1 inh	Cruzain Triton	Lassa entry inh	SARS PLP yeast
Cc1c(C=O)c(C=O)c(C)n1Cc1ccccc1	3%	-2%	u	u	-176%	3.0%	u	-17%
Cc1ccc(S(=O)(=O)NCC2CCC(C(=O)NCc3ccc(F)cc3)CC2)cc1 (stereo not given)	x	5%	-6%	x	x	-1.4%	u	x
CN1CCCN(C(=O)C2CCC(C(=O)N3CCCN(C)CC3)CC2)CC1 (stereo not given)	11%	x	8%	-1%	x	x	-4%	-1%
O=C(c1ccc2c(=O)n3c(nc2c1)CCCCC3)N1CCN(C(c2ccccc2)c2ccccc2)CC1	21%	u	-21%	u	11%	-2.0%	16µM*	-2%
O=C(COc1ccccc1)N=C1SC2CS(=O)(=O)CC2N1c1ccc(F)cc1 (stereo not given)	10%	x	-12%	x	2%	x	x	20%
Cn1c(=O)[nH]c(=O)c2c1nc(SCC(N)=O)n2Cc1cccc(Br)c1	10%	x	-1%	x	5%	x	x	1%
O=C(CCSCc1ccc(Cl)cc1)NCc1cccs1	-5%	x	-8%	23%	x	x	-1%	-12%
COc1ccc(Cc2nc3ccccc3n2CC(=O)N/N=C/c2ccccc2)cc1OC	-5%	9%	-4%	9%	8%	-5.9%	2%	-1%
COc1ccc(-c2csc3ncnc(N4CCN(c5ccccc5O)CC4)c23)cc1	26%	x	u	u	-26%	x	u	x
O=C(O)C1=CCCN(CCON=C(c2ccccc2)c2ccccc2)C1	5%	8%&-1%	-1%&20%&-12%	u	9%	5.5%&-1.9%	8%	x
COc1cc(OC)cc(C(=O)Nc2cc(C)nn2-c2ccccc2)c1	-14%	x	21%	-4%[46.1 µM]	-12%	x	10%[46.1 µM]	-1%
CNS(=O)(=O)c1cc(-c2nnc(Nc3cc(C)ccc3C)c3ccccc23)ccc1C	x	1%	9%	x	x	-6.1%	u	x
CCN(CC)S(=O)(=O)c1cccc(-c2nnc(SCC#N)n2Cc2ccccc2)c1	23%	21%	-8%	-24%	-4%	1.7%	u	-1%
CC(C(=O)NCC1CCCO1)N1C(=O)C2C3CC(C(Br)C3Br)C2C1=O (stereo not given)	4%	x	-12%	-2%[46.1 µM]	-1%	x	5%[46.1 µM]	-3%
S=C(c1ccc(N2CCCC2)c(Br)c1)N1CCCCC1	4%	x	40%[activator]	24%	4%	x	-2%	-4%
CN(C)C(=O)Oc1ccc(-c2cn3cc(Cl)ccc3n2)cc1	-17%	-5%	0%	u	-9%	0.1%	u	-44%
Cc1cccc(-c2nn3c(=O)cc(CN4CCN(C(=O)/C=C/c5ccccc5)CC4)nc3s2)c1	x	-17%	10%	x	x	3.8%	-6%[46.1 µM]	x
Brc1ccc(C2=Nn3cnnc3SC2)cc1	-23%	x	-14%	x	-23%	x	x	-5%
COC(=O)c1sccc1NC(=O)CSc1ccccc1NS(=O)(=O)c1cc(Cl)ccc1Cl	-2%	u	-7%	3%	6%	-0.7%	1%	0%
CCNC(=S)N1CCC(C(=O)c2ccc(Cl)cc2)CC1	4%	x	-15%	x	3%	x	x	0%
COc1ccc(CCNC(=O)C23CCC(C)(C(=O)O2)C3(C)C)cc1OC (stereo not given)	9%	x	-1%	x	4%	x	x	1%
Cc1cc(NS(=O)(=O)c2ccc(NC(=O)/C=C/c3c(F)cccc3Cl)cc2)no1	4%	x	-13%	-3%	-8%	x	14%	-6%
O=C1CN(C(=O)COC(=O)CNS(=O)(=O)c2ccccc2)c2ccccc2N1	17%	x	6%	4%[46.1 µM]	3%	x	7%	-3%
O=C(NCc1cccc(Cl)c1)c1ccc2c(Cl)c3c(nc2c1)CCCC3	x	-21%	6%	2%[46.1 µM]	x	-0.1%	2%[46.1 µM]	x
COc1ccc(C(=O)NC2CCN(C(=S)Nc3cc(C)ccc3C)CC2)cc1	3%	7%	x	-2%	-1%	1.2%	3%	4%
COc1ccc(NC(=O)c2ccco2)cc1NC(=O)COc1ccc(Cl)c(C)c1	x	u	-6%	1%[46.1 µM]	x	-1.9%	-23%[46.1 µM]	x
COc1ccc(NC(=S)N2CCN(Cc3cccc(F)c3)CC2)c(OC)c1	2%	x	-7%	6%[14.2 µM]	0%	x	-3%	0%
Nc1nc(Nc2cccc(Cl)c2)n[nH]1	1%	x	14%	-3%[46.1 µM]	9%	x	24%[46.1 µM]	0%
Cc1cc(COc2ccccc2O)on1	-8%	-12%	1%	3%	0%	4.5%	11%	4%
Cc1nc(N2CCN(Cc3ccccc3)CC2)[nH]c(=O)c1C	16%	-2%	17%	4%	-5%	1.4%	-17%	1%
Cn1nc(C(=O)N2CCN(S(=O)(=O)c3ccccc3)CC2)c2ccccc2c1=O	-8%	1%	-18%	0%	0%	4.0%	-5%	0%
CN(C)c1ncc(C(=O)NCc2ccccc2Cl)cn1	x	-12%	-7%	x	x	-4.5%	2%[46.1 µM]	x
O=C(CN1CCN(S(=O)(=O)c2ccc(Br)cc2)CC1)N/N=C/c1cc([N+](=O)[O-])ccc1Cl	-4%	-15%	-17%	u	u	-3.1%	1%	3%
CC(C)(C)c1ccc(-n2ncc3c2CCCC3NC(=O)CN2CCOC2=O)cc1 (stereo not given)	1%	x	u	-6%[46.1 µM]	-3%	x	u	-3%
COc1ccc(C(=O)N(CN2CCCC2=O)c2ccccc2OC)cc1OC	6%	11%	-16%	10%	-2%	6.8%	-3%	0%
Cc1ccc(Oc2nc(-c3cccnc3)nc3ccccc23)c([N+](=O)[O-])n1	2%	x	-11%	u	x	x	-1%	0%
O=C(O)c1ccc(N2C(=O)CC(SC(=Nc3ccccc3)Nc3ccccc3)C2=O)cc1 (stereo not given)	4%	-2%	-10%	-6%	u	-2.3%	7%	22%
Cc1[nH]c2ccc(-c3n[nH]c(=S)n3-c3ccccc3)cc2c1C	6%	-8%	-8%	11%	u	-7.3%	u	0%
COc1ccc(C(C#N)N2N=C(C)CC2c2ccccc2)cc1 (stereo not given)	-12%	x	-11%	4%&4%[46.1 µM]	5%	x	15%[46.1 µM]	1%
C=CCSc1nnc(NC(=O)CN2C(=O)NC3(CCCC3)C2=O)s1	3%	x	-16%	u	6%	x	u	21%
Cc1cc(NC(=O)CCSc2nc(-c3ccco3)cc(C(F)(F)F)n2)no1	3%	8%	-7%	4%	-1%	4.1%	-11%	-1%
CCN(CC)c1ccc(NC(=O)COC(=O)CSc2ccc(Br)cc2C)cc1	0%	29%	-5%	4%&40%	-63%	-11%	u	-40%
COc1c(F)c(F)c(C(=O)Nc2ccc(NC(=O)Cc3ccccc3)cc2)c(F)c1F	5%	x	-13%	x	4%	x	x	0%
COc1ccc(NC(=O)c2cc(OC)c(OC)c(OC)c2)cn1	-3%	5%	x	-2%	-6%	-2.5%	u	-5%
Cc1ccc(S(=O)(=O)N(C)C)cc1NC(=O)COC(=O)c1ccc2c(c1)NC(=O)CS2	2%	x	u	-1%[46.1 µM]	1%	x	-4%	0%
C#Cc1ccc([C@@H]2C=C(C(=O)NCc3ccccc3)O[C@H](OCc3ccc(CO)cc3)C2)cc1	4%	x	2%	x	3%	x	x	-3%
CCOc1c(Br)cc(C2NC(=O)CCC2[N+](=O)[O-])cc1OC (stereo not given)	0%	x	-10%	x	2%	x	x	0%
CC(C)Oc1ccc(/C(O)=C2/C(=O)C(=O)N(CCN3CCNCC3)C2c2cccc([N+](=O)[O-])c2)cc1 (stereo not given)	1%	x	-6%	16%	17%	x	-2%	-1%

Entries listed so far with a cyano group:
SMILES	RE007 growth inh	Cruzain noTriton	StopGo reporter	Marburg entry inh	NS1 inh	Cruzain Triton	Lassa entry inh	SARS PLP yeast
CCN(CC)S(=O)(=O)c1cccc(-c2nnc(SCC#N)n2Cc2ccccc2)c1	23%	21%	-8%	-24%	-4%	1.7%	u	-1%
COc1ccc(C(C#N)N2N=C(C)CC2c2ccccc2)cc1 (stereo not given)	-12%	x	-11%	4%&4%[46.1 µM]	5%	x	15%[46.1 µM]	1%

More records:
SMILES	RE007 growth inh	Cruzain noTriton	StopGo reporter	Marburg entry inh	NS1 inh	Cruzain Triton	Lassa entry inh	SARS PLP yeast
CCOc1ccccc1C(=O)N[C@H](C(=O)OCc1csc(CC(=O)Nc2ccc(C)cc2)n1)C(C)C	-13%	x	u	u	x	x	u	2%
Cc1cccc(C(C)C)c1NC(=O)COC(=O)Cc1ccsc1	1%	5%	-10%	u	-9%	-1.0%	4%	u
COc1ccc(-c2cc(C(=O)NC(Cc3cc4ccccc4[nH]3)C(=O)O)c(C)o2)cc1OC (stereo not given)	20%	x	21%	3%[46.1 µM]	x	x	19%	-1%
CC(Oc1ccccc1Cl)C(=O)Nc1ccc(S(=O)(=O)Nc2nccs2)cc1 (stereo not given)	9%	x	21%	6%[46.1 µM]	x	x	u	1%
COC(=O)c1ccc(CSc2nnc(SCc3ccc(C(=O)OC)o3)s2)o1	-7%	-3%	u	-1%	-18%	-6.2%	20%	-1%
CC(=O)Nc1nonc1NC(=O)CSc1ncn[nH]1	-7%	-2%	-13%	8%	-1%	-3.5%	17%	1%
CC(C)Oc1ccc(CNC(=O)CCn2c(=O)c3cccn3c3ccc(F)cc32)cc1	x	-2%	-11%	x	x	-7.9%	3%[46.1 µM]	x
COc1cccc(NS(=O)(=O)c2cc3c(cc2C)N(C)CCO3)c1	1%	x	55%[activator]	x	-1%	x	x	-1%
Cc1ccc(NC(=O)[C@H]2O[C@@H]3OC(C)(C)O[C@@H]3[C@H]3OC(C)(C)O[C@H]32)cc1F	x	-5%	-25%	6%[46.1 µM]	x	-1.6%	-11%[46.1 µM]	x
Cc1ccc(S(=O)(=O)N2CCC(C(=O)NCCc3ccccc3)CC2)cc1	-1%	-6%	-2%	28%	-3%	-2.2%	1%	10%
CCOC(=O)C1=C(C(=O)OCC)c2ccc(OC)c(OC)c2C1	2%	x	3%	u	x	x	-29%[46.1 µM]	x
CC(C)CCNC(=O)C(c1ccco1)N(CCCO)C(=O)Cn1nnc(-c2ccc(F)cc2)n1 (stereo not given)	-4%	x	6%	10%[46.1 µM]	-2%	x	-27%	0%
